Compound activity: PubChem, Broad Institute
FGF22 binding – binders of human FGF22 protein, primary screen, FGF22 synaptogenesis inhibitor project, biophysical, thermal shift, single point; Fibroblast growth factor 22 (Homo sapiens), Q9HCT0; recombinant FGF22 thermal shift, SYPRO orange fluorescence; percent of sucrose octasulfate shift, DMSO zero; calls only at 9.99 µM; 340,000 tested, 1.5% active; AID 651658, 2012;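 active = melting point raised past a set limit in the mean and every replicate; three in four hits are not shown here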
Target sequence (Q9HCT0 whole entry, looked up): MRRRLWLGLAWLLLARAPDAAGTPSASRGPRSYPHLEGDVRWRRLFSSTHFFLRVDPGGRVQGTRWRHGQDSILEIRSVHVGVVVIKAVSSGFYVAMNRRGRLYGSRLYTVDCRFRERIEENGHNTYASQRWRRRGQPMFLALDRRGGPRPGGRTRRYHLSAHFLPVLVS
Ecoli rRNA inh – reduced GFP signal of wild-type E. coli, primary screen, bacterial rRNA inhibitor project, GFP/RFP fluorescence, OD600, single point | 350,000 tested, 1.6% active | AID 720706, 2013 | E. coli WT GFP vs humanized-ribosome RFP mutants, 24 h; stronger effect = lower value; DMSO median 0, no signal -100 | GFP signal change (wild-type ribosome), % (test concentration not listed);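 active = significant combined selectivity score with lowered wild-type GFP, culture density cut under 30%, mutant RFP and density less affected; inactive = any of these conditions unmet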; note: one replicate is shown; some compounds called inactive have numbers as strong as hits
Ecoli rRNA inh OD600 – further read-out of Ecoli rRNA inh, marked with its call; OD600 change, %; measured here: OD600 growth;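 optical density of the mix in the first replicate; 0 = DMSO median and -100 = no signal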
Ecoli rRNA inh RFP – recorded beside Ecoli rRNA inh, whose call it bears; RFP signal change, %; measured here: RFP humanized mutant strains;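 first replicate; 0 = DMSO median and -100 = no signal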
* hit, by the source's call; i = inactive. An excerpt, so the mix of outcomes need not match the whole.

SMILES	FGF22 binding	Ecoli rRNA inh	Ecoli rRNA inh OD600	Ecoli rRNA inh RFP
Cc1noc(C)c1NC(=O)N(C)C[C@@H]1Oc2ccc(NC(=O)CCN3CCOCC3)cc2CC(=O)N([C@@H](C)CO)C[C@H]1C	i	2.1	7.8	-3.3
C[C@H]1CN([C@@H](C)CO)C(=O)c2cccc(NS(=O)(=O)c3cn(C)cn3)c2O[C@@H]1CN(C)Cc1ccc(-c2ccccc2)cc1	i	-3.2	-3.8	1.9
C[C@@H]1CN([C@H](C)CO)C(=O)Cc2cc(NC(=O)NC3CCCCC3)ccc2O[C@H]1CN(C)C(=O)Nc1ccc2c(c1)OCO2	i	1.2	-2.2	-0.9
CN(C)CC(=O)Nc1ccc2c(c1)[C@@H]1C[C@@H](CC(=O)N3CCOCC3)O[C@@H](CO)[C@@H]1O2	i	4.1	2.1	-2.0
O=C(C[C@@H]1CC[C@H]2[C@@H](COC[C@@H](O)CN2C(=O)c2cccnc2)O1)NCc1ccc(-c2ccccc2)cc1	i	3.3	11.5	0.8
C[C@@H]1CN([C@@H](C)CO)C(=O)Cc2cc(NC(=O)Cc3ccccc3)ccc2O[C@H]1CN(C)S(=O)(=O)c1ccccc1	i	-5.7	-11.4	0.5
C[C@@H]1CN([C@H](C)CO)C(=O)Cc2cc(N(C)C)ccc2O[C@@H]1CN(C)C(=O)Nc1ccc(C(F)(F)F)cc1	i	0.0	-6.7	0.8
COc1ccc2c3c(n(C)c2c1)[C@H](CO)N(C(=O)CN1CCOCC1)CC31CCN(C(=O)Nc2cccc(F)c2)CC1	i	-2.7	-7.2	0.3
CC(=O)N1[C@H](CO)[C@@H](c2ccccc2)[C@H]1CN(CC(C)C)C(=O)c1ccccn1	i	1.3	1.1	-0.3
CCC(=O)N1[C@@H]2Cn3c(ccc(C4=CCCC4)c3=O)[C@H]1[C@@H](C(=O)N[C@H](C)c1ccccc1)[C@@H]2CO	i	-3.6	-11.9	-2.2
Cc1noc(C)c1S(=O)(=O)Nc1cccc2c1O[C@H](CN(C)C(=O)Nc1ccccc1)[C@H](C)CN([C@@H](C)CO)C2=O	i	3.1	2.0	0.3
C[C@@H]1CN([C@H](C)CO)S(=O)(=O)c2ccc(-c3ccc(F)cc3)cc2O[C@@H]1CN(C)C(=O)C1CCOCC1	i	-1.3	6.0	-0.6
COc1ccc(S(=O)(=O)Nc2ccc3c(c2)C(=O)N([C@@H](C)CO)C[C@H](C)[C@@H](CN(C)S(=O)(=O)c2ccc(F)cc2)OCCCC[C@H](C)O3)cc1	i	-0.2	6.0	-0.2
O=C(C[C@H]1CC[C@H]2[C@@H](COC[C@H](O)CN2S(=O)(=O)c2ccc(Cl)cc2)O1)N[C@H]1CCN(Cc2ccccc2)C1	i	-3.2	-5.0	-0.1
COc1ccccc1-c1cnc2c(c1)C(=O)N([C@H](C)CO)C[C@H](C)[C@@H](CN(C)CC1CCOCC1)O2	i	4.1	25.9	-1.1
C[C@H](CO)N1C[C@H](C)[C@@H](CN(C)S(=O)(=O)c2ccc(F)cc2)Oc2cc(C#Cc3ccncc3)ccc2S1(=O)=O	i	-7.4	-9.1	2.4
COCC(=O)N(C)C[C@H]1Oc2cc(C#CC(C)C)ccc2S(=O)(=O)N([C@H](C)CO)C[C@@H]1C	i	-4.2	-7.8	0.1
CCCC(=O)Nc1ccc2c(c1)C(=O)N(C)[C@@H]1CC[C@H](CC(=O)NCC3CC3)O[C@@H]1CO2	i	0.2	-1.1	-1.7
COc1ccccc1-c1cnc2c(c1)C(=O)N([C@H](C)CO)C[C@@H](C)[C@@H](CN(C)Cc1ccncc1)O2	i	0.3	-10.8	1.8
N#Cc1cccc(-c2ccc3c(c2)[C@H]2[C@H](CCN2C(=O)C2CCCCC2)[C@@H](CO)N3)c1	i	-35.4	-58.2	13.0
COc1ccc2c3c([nH]c2c1)[C@H](CO)NCC31CN(S(=O)(=O)c2cccs2)C1	i	-2.3	-13.1	-1.3
CCCC#Cc1ccc([C@@H]2[C@@H](CO)N(C(=O)C3CCC3)[C@H]2C#N)cc1	i	1.4	2.4	0.4
COc1ccc(NC(=O)N[C@H]2CC[C@@H](CCn3cc(-c4ccccc4F)nn3)O[C@@H]2CO)cc1	i	1.2	-2.9	1.9
O=C1CN(S(=O)(=O)c2cccc(F)c2)C[C@H]2[C@@H](c3ccc(C4=CCCC4)cc3)[C@@H](CO)N12	i	-3.1	-5.2	3.1
O=C(N[C@H]1CC[C@H](CCNC(=O)C2CCC2)O[C@H]1CO)c1ccccn1	i	0.8	-0.5	-0.8
CO[C@@H]1CN(C)C(=O)c2cc(NC(=O)Nc3ccccc3Cl)ccc2OC[C@@H](C)N(S(=O)(=O)CC(F)(F)F)C[C@H]1C	i	-7.5	-7.7	1.0
COCC(=O)Nc1ccc2c(c1)C(=O)N(C)C[C@@H](OC)[C@@H](C)CN(Cc1ccncc1)[C@H](C)CO2	i	1.0	3.1	1.8
C[C@@H]1CCCCO[C@@H](CN(C)C(=O)CCCN(C)C)[C@H](C)CN([C@@H](C)CO)C(=O)c2cc(NC(=O)Nc3ccc4c(c3)OCO4)ccc2O1	i	1.1	4.7	0.2
COc1ccc(NC(=O)Nc2cccc3c2O[C@H](CN(C)S(=O)(=O)c2ccc(OC)cc2)[C@H](C)CN([C@@H](C)CO)C3=O)cc1	i	-4.7	-3.5	1.0
CCCC(=O)Nc1ccc2c(c1)OC[C@@H](C)N(Cc1ccncc1)C[C@H](C)[C@@H](OC)CN(C)C2=O	i	-1.7	-4.9	-3.2
C[C@H](CO)N1C[C@H](C)[C@@H](CN(C)C)Oc2ccc(NC(=O)Cn3cnnn3)cc2C1=O	i	6.1	9.6	-1.6
COCC(=O)Nc1ccc2c(c1)C(=O)N(C)[C@H]1CC[C@@H](CC(=O)NCC(F)(F)F)O[C@@H]1CO2	i	0.0	-7.5	-1.1
C[C@H]1CN([C@@H](C)CO)C(=O)c2cc(NC(=O)Cn3cnnn3)ccc2O[C@H]1CN(C)Cc1ccc(C(=O)Nc2ccccc2N)cc1	i	-1.4	-1.4	0.2
C[C@H](CO)N1C[C@H](C)[C@@H](CN(C)C)Oc2ccc(NS(=O)(=O)c3cn(C)cn3)cc2C1=O	i	2.5	9.5	-1.0
CC(C)NC(=O)N[C@H]1CC[C@@H](CCNC(=O)C2CC2)O[C@H]1CO	i	-0.3	-2.8	-2.3
C[C@H](CO)N1C[C@H](C)[C@@H](CN(C)C(=O)Nc2ccc(C(F)(F)F)cc2)OCCCC[C@H](C)Oc2ccc(NC(=O)c3ccncc3)cc2C1=O	i	-2.9	-4.8	-1.0
CC(C)C#Cc1ccc([C@H]2[C@H](C#N)N(C(=O)C3CC3)[C@H]2CO)cc1	i	-3.6	-2.7	-1.1
C[C@H]1CN([C@@H](C)CO)C(=O)c2cccc(NC(=O)c3cnccn3)c2O[C@H]1CN(C)C(=O)NC1CCCCC1	i	2.1	2.2	0.8
C[C@H](CO)N1C[C@H](C)[C@H](CN(C)S(=O)(=O)c2ccc(F)cc2)Oc2ccc(N(C)C)cc2C1=O	i	-2.8	4.9	1.0
COc1ccc(S(=O)(=O)N[C@H]2C=C[C@@H](CC(=O)NCCc3ccncc3)O[C@@H]2CO)cc1	i	-1.8	-4.7	0.9

Four entries out of the list above, ordered by their value in Ecoli rRNA inh OD600, highest first:
SMILES	Ecoli rRNA inh	Ecoli rRNA inh OD600	Ecoli rRNA inh RFP
C[C@@H]1CCCCO[C@@H](CN(C)C(=O)CCCN(C)C)[C@H](C)CN([C@@H](C)CO)C(=O)c2cc(NC(=O)Nc3ccc4c(c3)OCO4)ccc2O1	1.1	4.7	0.2
C[C@H]1CN([C@@H](C)CO)C(=O)c2cc(NC(=O)Cn3cnnn3)ccc2O[C@H]1CN(C)Cc1ccc(C(=O)Nc2ccccc2N)cc1	-1.4	-1.4	0.2
COc1ccc(NC(=O)N[C@H]2CC[C@@H](CCn3cc(-c4ccccc4F)nn3)O[C@@H]2CO)cc1	1.2	-2.9	1.9
CO[C@@H]1CN(C)C(=O)c2cc(NC(=O)Nc3ccccc3Cl)ccc2OC[C@@H](C)N(S(=O)(=O)CC(F)(F)F)C[C@H]1C	-7.5	-7.7	1.0

(listing goes on)
SMILES	FGF22 binding	Ecoli rRNA inh	Ecoli rRNA inh OD600	Ecoli rRNA inh RFP
C[C@@H]1CN([C@H](C)CO)C(=O)c2cc(C3=CCCCC3)cnc2O[C@H]1CN(C)Cc1ccncc1	i	-2.6	-0.4	-3.4
CC(C)CC#Cc1cnc2c(c1)C(=O)N([C@H](C)CO)C[C@@H](C)[C@H](CN(C)C(=O)CN1CCOCC1)O2	i	2.4	2.8	-3.9
O=C(C[C@H]1C=C[C@@H](NC(=O)Nc2ccccc2)[C@H](CO)O1)NCc1ccccn1	i	4.6	2.8	-1.3
COCC(=O)N1C[C@@H](C)[C@H](OC)CN(C)C(=O)c2cc(NC(=O)c3cc(C)on3)ccc2OC[C@@H]1C	i	1.6	0.3	1.4
CN1C(=O)c2cc(NC(=O)c3ccccc3)ccc2OC[C@H]2O[C@H](CC(=O)NC3CCCC3)CC[C@@H]21	i	0.9	4.9	-0.4
Cc1cc(C(=O)Nc2cccc3c2O[C@H](CN(C)C(=O)Nc2ccc(F)cc2)[C@H](C)CN([C@@H](C)CO)C3=O)n(C)n1	i	1.0	-0.8	0.3
C[C@H](CO)N1C[C@H](C)[C@H](CN(C)C(=O)NC2CCCCC2)Oc2ccc(NC(=O)Cn3cnnn3)cc2CC1=O	i	0.8	0.9	-1.0
C[C@H]1CN([C@@H](C)CO)C(=O)c2cccc(NC(=O)Nc3ccc4c(c3)OCO4)c2O[C@H]1CN(C)C(=O)Nc1ccc2c(c1)OCO2	i	-4.8	-6.2	1.8
CC(C)NC(=O)N(C)C[C@@H]1OCCCC[C@H](C)Oc2ccc(NC(=O)CCC(F)(F)F)cc2C(=O)N([C@@H](C)CO)C[C@H]1C	i	0.7	4.7	-0.6
COc1ccc(CN(C)C[C@@H]2OCCCC[C@H](C)Oc3ccc(NS(=O)(=O)c4cccs4)cc3C(=O)N([C@H](C)CO)C[C@H]2C)cc1	i	5.0	-0.9	5.8
COCC(=O)Nc1ccc2c(c1)[C@H]1C[C@@H](CC(=O)OC)O[C@H](CO)[C@H]1O2	i	1.6	10.1	-0.9
C[C@@H]1CN([C@H](C)CO)C(=O)Cc2cc(NS(=O)(=O)c3cn(C)cn3)ccc2O[C@H]1CN(C)S(=O)(=O)c1ccc(F)cc1	i	1.1	3.4	-2.6
COc1cccc(-c2cn(CC[C@@H]3CC[C@H](NC(=O)CC4CC4)[C@H](CO)O3)nn2)c1	i	-2.1	2.7	-0.3
C[C@@H]1CN([C@H](C)CO)C(=O)c2cc(-c3cccc(C#N)c3)cnc2O[C@H]1CN(C)C(=O)C1CC1	i	2.2	-0.4	-2.3
COc1cccc(NC(=O)Nc2ccc3c(c2)C(=O)N(C)[C@H]2CC[C@H](CC(=O)NCCc4ccccc4)O[C@H]2CO3)c1	i	-4.7	-16.4	-1.2
CCCNC(=O)N1C[C@@H](C)[C@H](OC)CN(C)C(=O)c2ccc(NC(=O)C3CCC3)cc2OC[C@H]1C	i	0.2	-0.1	-2.3
CN1[C@@H]2c3ccc(-c4ccccc4F)c(=O)n3C[C@@H]2[C@@H](CO)[C@@H]1C(=O)NCc1ccncc1	i	0.4	-0.3	-0.4
C[C@@H]1CN([C@@H](C)CO)C(=O)Cc2cc(NC(=O)Cc3cn(C)c4ccccc34)ccc2O[C@H]1CN(C)C(=O)Nc1ccc(C(F)(F)F)cc1	i	0.8	-10.5	-3.7
C/C=C/c1cnc2c(c1)C(=O)N([C@H](C)CO)C[C@H](C)[C@@H](CN(C)S(=O)(=O)c1ccccc1)O2	i	-6.5	4.2	1.4
Cc1cccc(S(=O)(=O)N2CC[C@H]3[C@@H](CO)N(C)c4ccc(-c5ccc(C#N)cc5)cc4[C@H]32)c1	i	-4.2	-10.4	-0.1
C[C@@H]1CN([C@H](C)CO)C(=O)c2cc(NC(=O)Cc3cn(C)c4ccccc34)ccc2O[C@@H]1CN(C)Cc1ccc(C(=O)O)cc1	i	-1.2	5.5	-1.0
COc1ccc(NC(=O)Nc2ccc3c(c2)[C@@H]2C[C@H](CC(=O)NCc4ccc5c(c4)OCO5)O[C@@H](CO)[C@@H]2O3)cc1	i	0.2	0.4	-1.8
CC(C)(C)[S@](=O)N1Cc2cc(C(=O)N3CCCCC3)nc(-c3cccc(-c4ccccc4F)c3)c2[C@@H]1CCO	i	-0.8	-30.9	36.0
Cc1cccc(CN(C)C[C@@H]2Oc3ncc(/C=C/c4ccccc4)cc3C(=O)N([C@H](C)CO)C[C@@H]2C)c1	i	-40.4	-60.8	10.8

Part of the list above in order of count of non-hydrogen atoms, ascending:
SMILES	FGF22 binding	Ecoli rRNA inh	Ecoli rRNA inh OD600	Ecoli rRNA inh RFP
C/C=C/c1cnc2c(c1)C(=O)N([C@H](C)CO)C[C@H](C)[C@@H](CN(C)S(=O)(=O)c1ccccc1)O2	i	-6.5	4.2	1.4
CC(C)(C)[S@](=O)N1Cc2cc(C(=O)N3CCCCC3)nc(-c3cccc(-c4ccccc4F)c3)c2[C@@H]1CCO	i	-0.8	-30.9	36.0
COc1ccc(NC(=O)Nc2ccc3c(c2)[C@@H]2C[C@H](CC(=O)NCc4ccc5c(c4)OCO5)O[C@@H](CO)[C@@H]2O3)cc1	i	0.2	0.4	-1.8
